Bfl-1 A1 inh: caspase 3/7 activation in MEF A1-2A-BIM cells, primary screen, A1 inhibitor project, cell-based, luminescence, HTS; Caspase-Glo 3/7 luminescence, 3 h; percent of clofoctol response, vehicle zero; caspase activation, % (no concentration beside the values); hit rate 0.066% among 330,000;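 active = over half of replicate activation scores above 10%, or exactly half above 10 with the replicate mean above 10; inconclusive = replicate mean below 10 yet half the replicates above 10; inactive = over half of replicates below 10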;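 also: wells of about 30 µL received 50 nL stock; many hits fall short of the cut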
T cruzi repl: inhibitors of intracellular T. cruzi growth, primary screen, luminescence, NIH3T3 host cells; AID 1885, 2009; hit rate 1.4% among 300,000; inhibition, % (no concentration beside the values); T. cruzi beta-gal in NIH3T3, 90 h;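 active = mean inhibition across valid replicates above about 55%, limit read from the data; inconclusive = mean below that limit but half or more replicates reach it; inactive = mean below it, under half of replicates reach it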;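 also: signal also drops with host cell toxicity which is not excluded here; 0% = plate median of DMSO wells and 100% = zero luminescence signal; higher percent means less beta-gal luminescence so fewer parasites; stock transfer was 50 nL into about 50 µL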
UCH37 inh: inhibitors of human UCH37 deubiquitinase, primary screen, biochemical, Ub-AMC cleavage, fluorescence; Ubiquitin carboxyl-terminal hydrolase isozyme L5 (Homo sapiens), Q9Y5K5; purified proteasome/UCH37; inhibition, % (concentration not given with the values); hit rate 0.33% among 330,000; AID 588478, 2011;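 active = mean of two replicates above 20%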;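 also: 0% = compound-free wells with enzyme and 100% = wells lacking proteasome; stock transfer was 100 nL into about 20 µL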
Target sequence (Q9Y5K5 whole entry, looked up): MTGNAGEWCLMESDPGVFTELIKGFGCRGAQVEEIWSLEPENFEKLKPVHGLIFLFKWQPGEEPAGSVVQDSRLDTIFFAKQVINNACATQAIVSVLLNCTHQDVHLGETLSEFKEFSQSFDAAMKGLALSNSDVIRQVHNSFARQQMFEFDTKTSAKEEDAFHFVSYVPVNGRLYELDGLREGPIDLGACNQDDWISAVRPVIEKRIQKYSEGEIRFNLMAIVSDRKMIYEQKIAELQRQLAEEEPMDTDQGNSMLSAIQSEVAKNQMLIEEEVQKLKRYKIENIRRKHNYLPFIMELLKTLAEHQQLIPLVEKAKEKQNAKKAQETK
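Test system – human UCH37 enzyme supplied as purified proteasome complex · Incubation – 30 min preincubation with enzyme, 25 min cleavage at room temperature · Detection – AMC fluorescence from Ub-AMC cleavage, excitation 355 nm, emission 460 nm · Benchmarks – no-proteasome wells (full inhibition) and compound-free wells (no inhibition)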
LANA-H2A inh: blockers of LANA interaction with H2A/H2B – biochemical, FP readout, HTS, primary screen; Protein LANA1 (Human herpesvirus 8 type P (isolate GK18)), Q9QR71; cell-free LANA-H2A/H2B peptide, fluorescence polarization; inhibition, % (concentration not given with the values); hit rate 0.6% among 320,000; AID 2629, 2010; in the data active = inhibition mostly above about 10%, no sharp cut-off; inactive = mostly below about 6.7%;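 also: stock transfer was 7.5 nL into about 10 µL; 0% = median of vehicle wells and 100% = median of positive control wells; one replicate is shown; the record names a cut of 25% in any replicate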
Calb FLC: C. albicans growth inhibition with fluconazole, primary screen, CaCi-2 strain, Alamar Blue fluorescence; C. albicans CaCi-2 (fluconazole-resistant clinical isolate) + fluconazole, 48 h; hit rate 0.57% among 300,000; growth inhibition, % (no concentration beside the values);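 active = most replicates above 75%; inconclusive = exactly half above 75%; inactive = most below 75%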;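 also: all wells also contain fluconazole at 8 µg/ml as a sub-toxic cotreatment; 0% = median of DMSO wells and 100% = median of geldanamycin control wells; wells of about 8 µL received 7.5 nL stock; the first replicate is given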
RanGTP-Imp inh: inhibitors of RanGTP-importin-beta interaction, primary screen, biochemical, FRET, CFP-Ran, YFP-importin-beta, homogeneous | Ran GTPase (GTP-bound) - importin-beta complex | cell-free CFP-Ran/YFP-importin-beta FRET ratio | inhibition, % (test concentration not listed) | hit rate 1.1% among 300,000 | AID 2216, 2009;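 active = most replicates above 15%; inconclusive = exactly half above 15%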;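 also: 0% = DMSO wells and 100% = Ran loaded with GDP instead of GTP; wells of about 40 µL received 100 nL stock; the first replicate is given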
Beta apoptosis: inhibitors of cytokine-induced beta cell apoptosis, primary screen, luminescence | protection from apoptosis, % (test concentration not listed) | AID 435005, 2010 | hit rate 0.8% among 300,000 | INS-1E cytokine-induced death, ATP luminescence, 48 h; percent of positive-control rescue, neutral wells zero;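 active = all replicates at 75% or more, or half of them and the mean; inconclusive = half reach 75% but not the mean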;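 also: 0% = cytokine-treated negative control wells and 100% = positive control rescue; higher means more ATP so stronger rescue from cytokine killing; wells of about 40 µL received 100 nL stock; the first replicate is given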
Beta2AR agonist: beta2AR agonists driving receptor internalization, primary screen, cell-based, FAP fluorogen, flow cytometry. Beta-2 adrenergic receptor (Homo sapiens), P07550. Am2.2-beta2AR cells; reference of the scale not given here. response, % (test concentration not listed). hit rate 0.43% among 340,000. AID 504454, 2011;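 active = response above a set limit, near 3 SD of response in nonfluorescent compounds, cut at about 42% in these data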;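 also: stock transfer was 100 nL into about 11 µL; a reference agonist was the positive control; negative values mostly stem from fluorescent compounds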
Target sequence (P07550 whole entry, looked up): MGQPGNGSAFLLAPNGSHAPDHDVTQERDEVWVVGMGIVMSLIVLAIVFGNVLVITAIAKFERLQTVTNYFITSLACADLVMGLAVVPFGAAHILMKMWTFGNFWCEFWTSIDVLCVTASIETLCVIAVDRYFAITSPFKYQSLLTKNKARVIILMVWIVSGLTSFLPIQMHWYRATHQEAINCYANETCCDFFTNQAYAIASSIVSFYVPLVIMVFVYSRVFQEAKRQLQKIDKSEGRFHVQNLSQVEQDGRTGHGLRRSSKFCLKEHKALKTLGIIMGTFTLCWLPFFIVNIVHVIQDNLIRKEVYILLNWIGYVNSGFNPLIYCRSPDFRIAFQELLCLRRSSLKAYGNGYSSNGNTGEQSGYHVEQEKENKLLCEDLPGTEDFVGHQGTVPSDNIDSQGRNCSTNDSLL
The depositor's hits bear a star; ? = inconclusive; · = no result given. Random draw from the library. Share with any hit: about 4.3%.

SMILES	Bfl-1 A1 inh	T cruzi repl	UCH37 inh	LANA-H2A inh	Calb FLC	RanGTP-Imp inh	Beta apoptosis	Beta2AR agonist
Cc1cc(C)n(-c2nc(N(C)C)nc(N(C)C)n2)n1	0.8	0	1.9	-3.1	3	1.0	-4	2
CCOC(=O)c1c(NC(=O)CSc2nnc3c(n2)[nH]c2ccc(F)cc23)sc(C(C)=O)c1C	-0.5	·	1.6	4.1	·	·	6	6
CCCCCCCCCCC[N+](C)(C)CC/C=C1/c2ccccc2Sc2ccc(Cl)cc21	?	51	·	0.6	84*	6.8	98*	0
CC(=O)c1c(C)[nH]c2ccccc2c1=O	-0.8	1	4.6	1.7	-10	-1.0	4	10
CSc1ccccc1NC(=O)COc1ccc(Cl)cc1C	-0.4	9	2.5	0.0	5	-2.8	-3	-11
Clc1ccccc1CN1CCN(CCCc2ccccc2)CC1	·	?	-0.3	·	-4	1.4	·	6
O=C(NCc1ccc(Cl)c(Cl)c1)c1cccnc1	0.7	0	7.0	0.3	1	2.1	-1	-2
COc1ccc(NS(=O)(=O)c2ccc(S(=O)(=O)N3CCCC3)cc2)cc1	-0.1	-1	1.8	-1.3	4	-3.2	7	1
CC(=O)Nc1cc2c(cc1NC(=O)c1cnccn1)OCCO2	0.6	-19	0.7	5.4	-3	3.3	0	0
CCNC(=O)CSC1=N/C(=C\c2ccc(O)c(OCC)c2)C(=O)N1c1ccc(OC(F)F)cc1	0.8	-23	-2.4	-11	16	3.0	7	8
COc1cc(C(C)=O)ccc1OCC(=O)N1CCc2ccccc2C1	0.0	-11	-2.8	1.8	5	-3.0	3	-5
CCc1ccccc1S(=O)(=O)Cc1ccc(C(=O)NCC2CCCO2)o1 (configuration not stated)	1.1	-9	5.3	0.2	1	?	-1	-1
COCCOC(=O)c1c(C)n(C)c2ccc(OC(=O)N3CCOCC3)cc12	0.4	12	5.3	2.8	-11	1.4	-3	1
Cc1ccc(C(O)CN2C3=NCCCN3c3ccccc32)cc1 (configuration not stated)	1.3	-50	-1.1	1.1	0	5.4	-9	-2
Cn1cccc1/C=N/NC(=O)c1sc2ccccc2c1Cl	-0.3	-3	·	-0.5	-49	4.0	-3	2
O=[N+]([O-])c1cc(Cl)c(O)c2ncccc12	·	9	25*	·	107*	1.6	·	14
C=CCn1c(C)cc(C(=O)COC(=O)c2ccc3c(c2)NC(=O)CS3)c1C	0.5	-17	3.7	10	9	-5.3	-8	6
CSc1nnc(C)c(=O)n1COC(=O)c1ccc(S(=O)(=O)N(C)C)cc1	0.7	-12	0.3	-2.5	-3	-2.8	-4	8
Cc1cc(C)nc(NS(=O)(=O)c2ccc(NC(=O)c3ccc(S(=O)(=O)N4CCOCC4)cc3)cc2)n1	0.8	-20	-0.6	2.4	-6	-1.4	-6	1
O=C(CCCN1C(=O)c2cccc3cccc(c23)C1=O)NCc1ccco1	-0.6	-7	-22	7.5	0	-1.1	5	4
COC(=O)c1cnc2c(c(C)nn2C)c1OC	-0.7	-31	-0.9	-2.5	1	7.0	2	-1
COc1ccc(C2NC3=C(CCC3)C3(C#N)C(OC)(OC)N=C(N)C23C#N)cc1 (configuration not stated)	0.7	1	-21	-1.4	-2	6.3	-7	-21
COc1ccccc1CNC(=O)COC(=O)c1ccc(C)c(S(=O)(=O)N2CCCCC2)c1	1.7	-21	1.0	-1.5	15	0.3	-5	2
O=C(NCc1ccccc1Cl)[C@@H]1CCCN1S(=O)(=O)c1ccc(Cl)cc1	0.0	·	2.3	4.9	·	·	3	-4
COc1cccc(/C=N/c2sc(Cc3ccccc3)c(C)c2C(N)=O)c1O	-0.1	-15	·	-4.1	-9	?	0	3
O=C(CSc1nnc(-c2ccco2)o1)c1ccccc1	0.5	18	2.9	5.7	8	-1.5	-7	-2
O=C(Nc1ccc(-c2ccccc2)cc1)c1ccco1	-0.2	0	2.0	2.4	-1	0.2	-4	0
COC(=O)CCC(=O)Nc1nnc(C(F)(F)F)s1	-1.2	-10	-0.5	-3.4	-3	0.8	2	-2
C=CC[C@@H](CC(=O)NCCO)C(=O)N[C@H](C)COC(=O)[C@@H](CC=C)Cc1ccc(F)cc1	0.7	·	4.2	3.8	·	·	-5	-5
Cc1ccc(NC(=O)CCc2c(C)nn(-c3ccc(N4CCCCC4)nn3)c2C)cc1F	-4.4	4	1.9	-1.2	-1	7.7	7	-16
COc1ccc(C(=O)/C=C\N2CCOCC2)cc1	-0.8	-3	3.6	-3.1	-19	4.5	-4	0
CC1(C)Cc2ccccc2C(=NCCCCCC(=O)O)N1	·	4	1.4	·	-9	-3.3	·	·
COC(=O)C1=C(C)N(Cc2cccnc2)C(=O)/C1=C\c1sccc1C	-0.6	9	7.9	-1.4	1	2.6	1	5
Cc1nc(SCC(=O)Nc2nc3ccccc3s2)c(C#N)c(C)c1C	-2.1	22	-2.9	4.7	5	-1.0	14	1
Cc1ccc2cc(COC(=O)c3ccncc3)c(=O)[nH]c2c1	0.7	6	6.1	0.9	9	-3.3	0	-4
Cc1ccc(S(=O)(=O)N2CCN(CC(=O)N3CCCC3)CC2)c(C)c1	0.5	·	2.4	6.5	·	·	-1	-6
CCC(=O)N1CCc2cc(S(=O)(=O)NC(Cc3ccccc3)C(=O)NC3CCCCC3)ccc21 (configuration not stated)	·	-2	0.4	·	9	-1.2	·	-23
Cc1nc(-c2ccccc2)sc1C1(C)CC(c2ccc([N+](=O)[O-])cc2)=NO1 (configuration not stated)	0.9	15	0.6	-1.7	-7	0.8	-1	-6
O=C(NC1CCCCCCC1)c1ccc(Br)o1	-0.7	-5	0.5	-0.2	-23	1.1	-4	-8
COc1ccc(C2C3=C(CC(C)(C)CC3=O)N(CC(=O)O)C3=C2C(=O)CC(C)(C)C3)cc1OC	0.5	11	3.4	0.4	6	0.3	-2	-5
Cc1[nH]c(=O)[nH]c(=O)c1NS(=O)(=O)c1ccccc1	-0.6	-29	4.3	-1.0	-3	0.4	2	-2
C=CCOc1cccc(CNn2cn[nH]c2=S)c1	0.2	-13	0.2	-1.1	0	1.2	9	-2
O=C1OCCN1CCNCc1cn(-c2ccc(F)cc2)nc1-c1ccccc1Cl	-0.2	1	2.7	1.5	2	-5.2	-7	-6
O=C(NCc1cccnc1)c1ccc(-c2ccccc2[N+](=O)[O-])o1	1.8	2	2.0	0.9	-11	-0.3	5	-4
COc1ccc(C(=O)N2CCC(N3CCN(c4ccccc4)CC3)CC2)cc1	-0.4	5	2.0	1.5	-2	?	-2	5
COc1ccc(Cl)cc1NC(=O)CN1CCN(S(=O)(=O)N2CCCCC2)CC1	0.0	10	0.9	-3.8	-3	-1.1	13	3
Cc1nnc(NC(=O)c2ccc(S(=O)(=O)N(C)c3ccccc3)cc2)s1	0.1	·	4.6	4.4	·	·	-1	3
CC(Sc1cccc[n+]1[O-])C(=O)Nc1ccc(Oc2ccccc2)cc1 (configuration not stated)	0.0	3	3.3	-4.8	55	10	-1	11
S=c1[nH]cnc2scc(-c3ccc(Br)cc3)c12	-0.6	45	4.5	-0.6	-9	-1.3	32	-5
CCCc1nc(NC(=O)c2ccccc2)nc(NC(=O)c2ccccc2)n1	0.0	-5	1.7	-2.8	-6	1.3	·	-1
CCCCNS(=O)(=O)c1ccc2nc(-c3cccnc3)cc(C(=O)NC(C)C)c2c1	0.5	1	6.7	3.1	2	-0.7	-1	-5
Cc1ccc(-n2nc(C(=O)O)c(O)cc2=O)cc1	-0.3	-12	-2.7	-0.5	-42	-0.4	-4	-1
CCCCNCCCCOc1ccccc1	2.1	4	1.0	3.2	-3	-2.4	-7	0
COc1c(F)c(F)c(C(=O)O)c(Nc2ccc(C)cc2C)c1F	-0.5	-1	4.0	3.6	-4	-1.6	2	-3
CC1CCN(C(=O)C2Cc3ccccc3CN2S(=O)(=O)c2ccc(F)cc2)CC1 (configuration not stated)	0.8	20	1.8	4.6	6	5.6	-2	8
O=C(c1ccco1)N1CCN(CCCCOc2cccc3ccccc23)CC1	0.2	15	4.9	2.5	-23	-0.2	3	-3
CCN(CC)S(=O)(=O)c1ccc(/C=C/C(=O)OCC(=O)N(C(C)C)C(C)C)cc1	0.0	-6	3.3	4.6	-4	-0.6	-2	0
CN1CCN(c2ccccc2NC(=O)c2ccc(-c3cccc([N+](=O)[O-])c3)o2)CC1	1.3	0	2.5	0.4	-3	2.5	4	1
Cc1cccc(NC(=O)CCn2c(=O)oc3ccccc32)c1	-0.1	-5	2.7	-0.2	0	-3.2	0	8
Oc1cccc(CN2CCCCC2)c1	-1.9	-5	-0.4	-8.6	-9	1.6	-2	-8
Next part.
SMILES	Bfl-1 A1 inh	T cruzi repl	UCH37 inh	LANA-H2A inh	Calb FLC	RanGTP-Imp inh	Beta apoptosis	Beta2AR agonist
CSc1nnc(Cn2c(=O)sc3ccccc32)n1-c1ccccc1C	0.7	-1	-2.3	-0.9	-4	-2.7	-7	4
O=C(CN1CCN(C2CCCCC2)CC1)c1ccc2cc[nH]c2c1	-0.6	8	-72	0.6	-5	-0.5	-5	-7
CCN(CC)S(=O)(=O)c1cccc(-c2n[nH]c(=S)n2/N=C/c2ccc(OC)cc2)c1	0.5	6	·	1.5	28	0.8	6	-5
O=C(NCC1CCCO1)c1cccnc1Nc1ccccc1F (configuration not stated)	-0.2	2	5.2	-0.5	8	?	-5	-3
CCC(=O)NCCc1nc2cc(NC(=O)c3cccc([N+](=O)[O-])c3)ccc2n1C	-0.6	-17	5.4	-1.5	18	5.2	-2	-2
CC(C)NC(=O)NC(=O)COC(=O)c1ccc(F)cc1F	-0.4	-7	1.8	·	14	-0.8	-7	4
CC(C)NC(=O)N(C)C[C@H]1Oc2c(NC(=O)Cc3ccccc3)cccc2C(=O)N([C@H](C)CO)C[C@@H]1C	-0.1	·	3.4	-0.8	·	·	-8	1
Cc1ccc(/C=C(\NC(=O)c2ccccc2)C(=O)N2CCCC2C(=O)O)cc1 (configuration not stated)	-0.3	-9	3.9	-3.6	5	·	1	2
O=C1C2CCCCN2C(=O)N1CCCN1CCN(c2ccc(F)cc2)CC1 (configuration not stated)	0.3	8	2.4	-0.4	1	-1.4	1	-3
Cn1c(=O)c2c(O)c([N+](=O)[O-])c(=O)n(C)c2n(C)c1=O	-0.6	-3	2.1	-0.5	9	0.7	-1	-4
COc1cc(Cl)c(C)cc1NC(=O)c1ccc(S(C)(=O)=O)cc1	-1.3	-8	2.5	-0.5	6	-0.7	1	9
COc1nn(CC(=O)N2N=C(C)CC2(O)C(F)F)cc1[N+](=O)[O-] (configuration not stated)	2.1	-6	4.5	2.1	-2	-1.7	-6	3
COc1ccc(Nc2nc(NC(C)(C)C)nc(N3CCOCC3)n2)c(OC)c1	0.0	59*	-0.2	2.3	-11	9.5	-4	8
O=C(Nc1ccncc1)c1sc2ccccc2c1Cl	-2.0	-2	5.1	-0.6	-16	5.5	-1	-7
